Mtb hypoxia rep = Mtb hypoxia fluorescent reporter inhibition; M. tuberculosis hypoxia-regulated fluorescent reporter, fluorescence; fluorescence inhibition, % (test concentration not listed); hit rate 0.1% among 300,000; AID 1159583;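 active = 35 to 45% if threefold the growth effect, above 45% if 1.5-fold the growth effect; inactive = the rest, general growth blockers included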;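 note: wells of about 50 µL received 100 nL stock; 0% = vehicle wells and 100% = reference inhibitor wells; whole bacteria with a GFP reporter of the hypoxia response; strong numbers were not always called active; many hits fall short of the cut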
Sa ugtP lethal = compounds lethal to S. aureus RN4220 ugtP deletion mutant; OD600 growth, 16 h; some inactives read as strong as hits; growth inhibition, % (test concentration not listed); hit rate 0.54% among 330,000; AID 1259309;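 active = z-score under -3 and OD600 up to 0.15 on both plates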;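 note: plate controls were untreated wells for no effect and antibiotic for full effect; wells of about 80 µL received 100 nL stock; the first replicate is given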
RN4220 kill = kills Staphylococcus aureus RN4220; S. aureus RN4220 growth, OD600, 16 h; inhibition, % (concentration not given with the values); hit rate 0.33% among 330,000; AID 1259311;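 active = z-score of -3 or lower and OD600 up to 0.18 on both plates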;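 note: plate controls were untreated cells for no effect and reference antibiotic for full effect; stock transfer was 100 nL into about 80 µL; one replicate is shown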
Bead autofluor = flagged as autofluorescent in microsphere protease counterscreen | hit rate 3.1% among 360,000 | compound autofluorescence counterscreen, microsphere flow cytometry; hits give high values | AID 624483 | fluorescence intensity (concentration not given with the values);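 active = at least 3 SD above the mean of all compounds, about 16000 in these data; inconclusive = too few beads counted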;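 note: 100 nL of 1 mM stock went into each well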
PrP 5UTR inh = inhibition of PrP 5' UTR reporter expression; cell-based PrP 5' UTR mRNA reporter, plate reader; inhibition, % (concentration not given with the values); hit rate 0.35% among 340,000; AID 488862;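 active = every replicate at 50% or more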;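 note: 0 = median of the neutral control wells; tested in H4 reporter cells; numbers are from one replicate; inactives centre near -14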
BJeLR lethal = kills HRASV12-expressing BJeLR cells. inhibition, % (test concentration not listed). BJeLR (HRASV12) viability, CellTiter-Glo ATP luminescence, 48 h; reference of the scale not given here. hit rate 0.17% among 300,000;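 active = replicate mean above 50%; inconclusive = above 50% but judged a plate artefact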;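 note: 50 nL library stock added to about 25 µL; numbers are from one replicate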
Mtb hypoxia rep growth = also measured in Mtb hypoxia rep; calls as there; growth inhibition, %; measured here: M. tuberculosis growth (absorbance);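 0% = vehicle and 100% = reference antibiotic; read after six days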
Numbers without * were called inactive; ? = inconclusive; / = no result given; & = joins results of further samples. No enrichment for hits; about 3.9% have a hit in one of these screens.

Sequence of screens: Mtb hypoxia rep	Mtb hypoxia rep growth	Sa ugtP lethal	RN4220 kill	Bead autofluor	PrP 5UTR inh	BJeLR lethal
CC1(C)Oc2ccc(C(=O)NC3CCCCC3)cc2N(CC#N)C1=O
  5	11	6	3.7	3421	-17	-7
Cc1ccc(C(=O)N/N=C\C=C\c2ccc(Br)cc2)cn1
  /	/	/	/	1964	-3	1
CN(C)c1cccc(C(=O)OCC(=O)NC(=O)NCc2ccccc2)c1
  8	15	3	3.0	4297	-17	/
N#Cc1c(N)sc2c1CCN(C(=O)OCc1ccccc1)C2
  9	11	-2	3.3	11099	-24	-4
CCOC(=O)c1c(C)[nH]c(C)c1C(=O)COC(=O)CNC(=O)c1ccc(OCC)cc1
  11	8	9	-3.4	3718	-3	11
COc1ccccc1OCC(=O)N(Cc1nnc(-c2ccccc2Cl)o1)C1CC1
  11	13	6	2.0	5523	-23	-4
NS(=O)(=O)c1ccc(CNC(=O)Cc2c(F)cccc2Cl)cc1
  0	8	-3	0.1	2229	-3	0
COc1cc2c(c(OC)c1OC)-c1c(cc3c(c1OC)OCO3)CC(C)[C@@](C)(O)C2 (stereo partly drawn)
  -1	-3	-6	3.8	/	/	/
CN1CCc2ccc(NC(=O)c3ccc(C(F)(F)F)cc3)cc2C1
  -5	8	7	2.7	3574	-15	3
CCCCNc1nc2c(c(=O)[nH]c(=O)n2C)n1CCOc1ccccc1
  1	6	1	2.7	20620*	-19	1
CN(C)c1ccc(/C=C(\C#N)C(=O)NCc2ccco2)cc1
  19	0	-5	8.8	/	/	-2
Cc1nn(C)cc1CN(C)C(=O)c1sc2cccc(Cl)c2c1Cl
  6	9	7	8.8	3392	-3	-1
COc1cc2c(cc1OC)CN(C(=O)CN1CCN(S(=O)(=O)c3ccc(C)c(C)c3)CC1)CC2
  8	6	8	3.8	6227	-11	13
Nc1nc2n(n1)C(c1c(F)cccc1Cl)CC(c1ccc(F)cc1)N2 (stereo not drawn)
  /	/	0	-0.5	6298	-12	-3
Cc1cccc(N2C(=S)NC3c4ccccc4OC2(C)C3C(=O)N(C)C)c1 (stereo not drawn)
  -6	-2	3	6.6	4521	-14	-1
Cn1c(=O)c2[nH]c(NN=C(C#N)C(N)=O)nc2n(C)c1=O
  4	-10	6	1.0	/	/	/
COc1ccc(-c2c(-c3cc(OC)cc(OC)c3)n(C)c3ccc(Br)cc23)cc1
  3	-2	15	-11	3442	-30	/
O=C1C=C(c2cccc(Cl)c2O)CC(c2ccc3c(c2)OCO3)C1 (stereo not drawn)
  20	6	10	8.6	/	/	/
CC(=O)c1sc(Nc2cccc3ccccc23)nc1C
  1	-1	4	4.4	6035	-37	-2
COC(=O)c1sccc1NC(=O)CSCC(=O)O
  0	2	-1	0.3	3631	-7	5
CC(C)C(N)C(=O)OCCOCn1cnc2c(=O)[nH]c(N)nc21 (stereo not drawn)
  10&-5	0&-5	-3&-9	5.5&3.0	/	/	/
Cc1cccc(NC(=O)C2CCN(S(=O)(=O)c3cccc4cccnc34)CC2)n1
  /	/	-3	3.1	5433	-4	10
CCC(C)N1CCN(S(=O)(=O)c2ccc3ccccc3c2)CC1 (stereo not drawn)
  1	0	5	1.8	3420	-18	-5
Cc1sc(NC(=O)c2ccccc2)c(C(c2ccccn2)N2CCN(CCO)CC2)c1C (stereo not drawn)
  4	4	-4	4.3	1937	-7	0
Cc1ccc(NC(=O)c2cccs2)cc1[N+](=O)[O-]
  -5	0	7	5.8	4461	-62	-1
O=c1c2c(nc3cc(-c4cccc(F)c4)[nH]n13)CCC2
  /	/	/	/	5277	-35	6
CCOC(=O)COc1ccc2c(c1)C(=O)CC(C)(c1cccnc1)O2 (stereo not drawn)
  5	9	-2	-1.2	10047	-25	-15
O=C(O)CCCCCNc1ccc2nsnc2c1[N+](=O)[O-]
  -9	13	6	5.6	3242	-28	2
CNc1nc(C)c(C(=O)c2ccc(Cl)cc2)s1
  4	5	-5	5.0	2437	-23	0
COc1cc(NC(=O)c2cccc(Cl)c2)ccc1NC(=O)c1cccs1
  5	-3	14	16	3808	-22	/

(further entries)
Sequence of screens: Mtb hypoxia rep	Mtb hypoxia rep growth	Sa ugtP lethal	RN4220 kill	Bead autofluor	PrP 5UTR inh	BJeLR lethal
COc1ccc(/C(C)=N/NC(=O)C2C3CCCCC32)c(OC)c1 (stereo not drawn)
  /	/	/	/	2632	-1	11
COc1ccc(C=C(C#N)C#N)c(CSc2ccccn2)c1
  5	-2	15	9.0	4068	-16	-1
COc1ccccc1CC(=O)Nc1nc(-c2ccc(F)c(F)c2)cs1
  18	10	84	-19	3916	-25	-9
CC1CC(C)CN(CCCNC(=O)c2ccc3c(c2)NC(=O)CS3)C1 (stereo not drawn)
  15	4	3	2.8	5946	-42	-7
O=C(Cc1ccc(O)cc1)NN=Cc1cccs1
  10	-8	3	-0.7	/	/	/
O=C(NCC1CC1)C1(C(F)(F)F)CC(=CCc2ccccc2)CCCO1 (stereo not drawn)
  15	-2	2	12	/	/	/
CC(C)(C)c1nc(Sc2ncccc2[N+](=O)[O-])n[nH]1
  3	14	9	5.3	4049	-11	1
CCCCCCC(=O)N=Nc1c(O)[nH]c2ccc([N+](=O)[O-])cc12
  -4	-7	-12	11	2249	-13	3
CCC(Sc1nc2ccncc2[nH]1)C(=O)Nc1cc(Cl)ccc1C (stereo not drawn)
  8	3	15	-0.2	5487	-13	-5
O=C(/C=C/c1ccc([N+](=O)[O-])cc1)NNC(=O)C1CC1
  -1	-6	-1	4.5	4821	-11	-6
COc1ccc(N2CCN(Cc3cc(=O)oc4ccc5ccccc5c34)CC2)cc1
  /	/	1	4.4	2726	8	-8
CCOC(=O)CNS(=O)(=O)c1cc(-c2nn(C)c(=O)c3ccccc23)ccc1C
  1	5	0	11	3472	-24	-3
Cc1ccc2oc(-c3cccc(NC(=S)NC(=O)/C=C/c4ccco4)c3)nc2c1
  /	/	74	-11	2901	-12	2
CCOC(=O)c1cc(C#N)c(SCc2ccc(C#N)cc2)nc1C
  10	4	-1	0.2	3319	2	2
COc1ccc(C(=O)c2ccc(OC)c3cccc(O)c23)cc1OC
  2	1	-11	5.4	3037	-45	7
COc1ccc(CC(=O)NCCN2CCCC2)cc1
  -4	-3	17	17	?	-18	8
CCCC1CCC(C2=N/C(=C\c3ccc(OC)c(OC)c3)C(=O)O2)CC1 (stereo not drawn)
  9	11	0	8.2	22779*	-44	2
CCOC(=O)c1c(NC(=O)COc2ncnc3ccccc23)sc(C)c1CC
  /	/	/	/	8972	-15	-17
CCCCC1=CC2=CC(=O)C(C)(OC(=O)CC)C(=O)C2=CN1CCN1CCOCC1 (stereo not drawn)
  18	10	1	9.9	/	/	0
Cc1cc(C)nc(-n2ncc3c2CC(c2ccccc2C)CC3=O)n1 (stereo not drawn)
  -11	6	-3	-3.5	2561	-3	15
CCc1ccc(OCCNC(=O)c2ccc(S(=O)(=O)N(C)C)cc2)cc1
  9	11	3	3.3	22522*	-20	-5
COC(=O)C(C)NC(=O)C1CCCN1S(=O)(=O)c1cc(C)c(Cl)cc1C (stereo not drawn)
  22	-15	0	-13	3206	-9	-13
O=C(C1CCN(C2CCN(C/C(Cl)=C/c3ccccc3)CC2)CC1)N1CCOCC1
  -8	1	-6	-1.1	6225	-33	-6
O=C(NCc1ccc(F)cc1)c1ccc[nH]1
  0	14	-8	-1.2	4414	-113	-4
COC(=O)c1cnn(C(=O)c2ccccc2Br)c1N
  3	0	-1	-1.6	22952*	-12	-4
CC(C)(C)NC(=O)c1cc(-c2ccccc2)n[nH]1
  10	19	7	-1.9	3584	-12	-1
Cc1c(C(=O)N2CCOCC2)c(S(=O)(=O)Nc2ccc(F)cc2)c(C)n1C
  12	-1	3	-1.0	5150	-10	14
O=C(NN=Cc1ccncc1)c1nc(-c2ccccc2)n2c1CCCCC2
  5	8	-1	6.0	/	/	/
CC(=O)c1cccc(Nc2nc(-c3cccnc3)cs2)c1
  4	7	-12	2.4	3787	-68	-5
COc1ccc(CN(C)c2ncnc(N)n2)cc1
  4	2	-2	2.5	2617	-17	-2

Entries from the list above that contain a COOH group:
Sequence of screens: Mtb hypoxia rep	Mtb hypoxia rep growth	Sa ugtP lethal	RN4220 kill	Bead autofluor	PrP 5UTR inh	BJeLR lethal
COC(=O)c1sccc1NC(=O)CSCC(=O)O
  0	2	-1	0.3	3631	-7	5
O=C(O)CCCCCNc1ccc2nsnc2c1[N+](=O)[O-]
  -9	13	6	5.6	3242	-28	2

The listing continues:
Sequence of screens: Mtb hypoxia rep	Mtb hypoxia rep growth	Sa ugtP lethal	RN4220 kill	Bead autofluor	PrP 5UTR inh	BJeLR lethal
CCc1cccc(C)c1NC(=O)COC(=O)c1ccc2c(c1)S(=O)(=O)c1ccccc1C2=O
  8	2	8	19	7351	1	-8
CC(C)NC(=O)c1onc(CSc2cccc(F)c2)c1C(=O)O
  -5	1	-12	-4.9	3929	-20	-2
COc1ccc(Nc2nccc3c2ncn3C)cc1
  -4	-9	6	0.8	5100	-23	-6
COc1ccccc1NC(=S)NC(=O)CC(C)C
  /	/	23	0.1	2345	-84	-1
COc1ccc(-c2oc(=O)c3cc(OC)c(OC)cc3c2C=Cc2cccc([N+](=O)[O-])c2)cc1
  -8	13	-10	10.0	/	/	/
COc1ccccc1/C=C1/SC(=O)N(CCC(=O)Nc2ccc(S(=O)(=O)Nc3nccs3)cc2)C1=O
  /	/	/	/	1978	-14	-2
O=C(c1ccco1)N1CCN(c2nc(C3CC3)nc3sc4c(c23)CCCC4)CC1
  4	-2	44	29	12743	-14	-6
O=C(Cn1cnc2c(nnn2Cc2ccccc2)c1=O)c1ccccc1
  14	8	-4	-12	6280	-28	-10
CN1CCC(=C(c2ccccc2)c2ccc(Br)cc2)CC1
  21	13	60	-8.2	5448	-11	4
O=C(CSc1ccc(-c2ccco2)nn1)c1ccc(F)cc1
  7	4	0	12	2642	-10	-9
CCOC(CCNC(=O)c1cn(C)c(=O)c2c1c1ccccc1n2C)OCC
  10	3	3	4.4	5221	-21	10
Cc1cc(/C=C2\NC(=O)N(Cc3ccc(Cl)cc3)C2=O)c(C)n1C
  -9	-4	8	10	2820	-23	/
CN(C)CCNC(=O)c1cc2c(=O)n(C)c3ccccc3c2n1C
  /	/	1	-2.0	5380	-9	-13
O=C(NCCN1CCCC1)c1ccc(Cl)cc1
  1	2	0	3.9	2370	-11	4
O=C(NN=C1CCCC1)c1[nH]c2ccc(Br)cc2c1-c1ccccc1
  -1	8	-30	-8.7	/	/	4
CC(C)NS(=O)(=O)c1ccc(CCC(=O)NCc2ccccn2)cc1
  16	5	11	5.6	3841	-21	-5
Cc1ccc(C(=O)CSc2n[nH]c(C)n2)cc1
  2	6	0	3.6	9972	-21	-11
Cn1c(=O)n(CC(=O)NCC2CCCO2)c(=O)c2c3c(sc21)CCCC3 (stereo not drawn)
  -12	-5	1	2.8	6236	8	9
O=C(N/N=C/c1c(-c2ccccc2)[nH]c2ccccc12)c1cccnc1
  /	/	/	/	4351	-20	6
COc1cccc(C(=O)Oc2ccc3ccc(O)cc3c2)c1
  16	4	-1	9.6	/	/	-6
COc1ccc2cc(C(C)=NNC(=O)c3cc(-c4cccnc4)nc4ccccc34)ccc2c1
  4	0	1	4.1	/	/	/
O=C(NCc1n[nH]c(=S)n1-c1ccc(F)cc1)c1ccc(S(=O)(=O)N2CCOCC2)cc1
  -5	-5	5	1.3	2288	-26	-4
COc1ccc(C(=O)C[n+]2cccc(C)c2)cc1
  7	3	8	3.8	2635	-7	0
CC(C)CCOP(=O)(c1ccc(N(C)C)cc1)C(O)c1ccc(N(C)C)cc1 (stereo not drawn)
  1	3	2	2.4	2879	-5	-7
COc1ccc(CN2C(=O)c3oc4ccccc4c(=O)c3C2c2ccc(O)c(OC)c2)cc1 (stereo not drawn)
  3	14	4	4.5	4425	-21	-10
CCOC(=O)c1c(CSc2ccsc2)n(C)c2cc(Br)c(O)c(CN(C)C)c12
  2	5	0	4.5	4937	-3	8
O=C(NCC(c1cccnc1)N1CCOCC1)c1cccc(Cl)c1 (stereo not drawn)
  4	-2	4	2.6	3832	-17	-21

Source: PubChem BioAssay
